Bioassay records (PubChem BioAssay)
Sa RN4220 lethal: kills Staphylococcus aureus RN4220 | 330,000 tested, 0.33% active | inhibition, % (test concentration not listed) | AID 1259311 | S. aureus RN4220 growth, OD600, 16 h;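 active = z-score of -3 or lower and OD600 up to 0.18 on both plates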;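 also: plate controls were untreated cells for no effect and reference antibiotic for full effect; stock transfer was 100 nL into about 80 µL; one replicate is shown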
BJeLR lethal: kills HRASV12-expressing BJeLR cells | BJeLR (HRASV12) viability, CellTiter-Glo ATP luminescence, 48 h; reference of the scale not given here | inhibition, % (concentration not given with the values) | 300,000 tested, 0.17% active | AID 1554;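 active = replicate mean above 50%; inconclusive = above 50% but judged a plate artefact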;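 also: 50 nL library stock added to about 25 µL; numbers are from one replicate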
Bead autofluor: flagged as autofluorescent in microsphere protease counterscreen; fluorescence intensity (concentration not given with the values); compound autofluorescence counterscreen, microsphere flow cytometry; stronger effect = higher value; AID 624483; 360,000 tested, 3.1% active;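 active = at least 3 SD above the mean of all compounds, about 16000 in these data; inconclusive = too few beads counted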;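 also: 100 nL of 1 mM stock went into each well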
ugtP null kill: kills S. aureus RN4220 lacking UgtP. S. aureus RN4220 ugtP deletion, OD600 growth, 16 h; some inactives read as strong as hits. growth inhibition, % (concentration not given with the values). 330,000 tested, 0.54% active. AID 1259309;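 active = z-score under -3 and OD600 up to 0.15 on both plates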;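 also: plate controls were untreated wells for no effect and antibiotic for full effect; wells of about 80 µL received 100 nL stock; the first replicate is given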
PrP UTR inh: inhibition of PrP 5' UTR reporter expression | cell-based PrP 5' UTR mRNA reporter, plate reader | inhibition, % (no concentration beside the values) | 340,000 tested, 0.35% active | AID 488862;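 active = every replicate at 50% or more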;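 also: 0 = median of the neutral control wells; tested in H4 reporter cells; numbers are from one replicate; inactives centre near -14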
Mtb hypoxia inh: reduces hypoxia-regulated biosensor signal in M. tuberculosis; M. tuberculosis hypoxia-regulated fluorescent reporter, fluorescence; fluorescence inhibition, % (concentration not given with the values); 300,000 tested, 0.1% active; AID 1159583;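 active = 35 to 45% if threefold the growth effect, above 45% if 1.5-fold the growth effect; inactive = the rest, general growth blockers included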;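 also: wells of about 50 µL received 100 nL stock; 0% = vehicle wells and 100% = reference inhibitor wells; whole bacteria with a GFP reporter of the hypoxia response; strong numbers were not always called active; many hits fall short of the cut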
Mtb hypoxia inh growth: second read-out of Mtb hypoxia inh, no call of its own (marks repeat the call); growth inhibition, %; measured here: M. tuberculosis growth (absorbance);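 0% = vehicle and 100% = reference antibiotic; read after six days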
* hit, by the source's call; ? = inconclusive; . = not tested or not shown. This is a random part of the collection; overall some 4% were active at least once.

SMILES	Sa RN4220 lethal	BJeLR lethal	Bead autofluor	ugtP null kill	PrP UTR inh	Mtb hypoxia inh	Mtb hypoxia inh growth
CC(C)C(=O)Nc1cc(C(F)(F)F)ccc1N1CCOCC1	5.2	-8.8	10212	1.2	-21.9	4.4	10.7
COC(=O)[C@@H]1C[C@@]2(Br)c3ccccc3N(S(=O)(=O)c3ccccc3)[C@H]2N1C(=O)OC	.	6.3	3453	.	-17.7	.	.
Cc1ccccc1NC(=O)C1CCCN1C(=O)NC1CCCCC1 (stereo not drawn)	4.4	-2.6	6631	4.2	-16.9	0.5	1.5
COc1ccc(-c2nc(C3CCCCC3)no2)cc1OC	1.6	8.8	22056*	11.2	-100.8	9.2	16.7
CCCCCC(=O)NNC(=O)c1ccc(F)cc1	3.1	0.7	2022	7.0	-11.2	5.5	0.6
O=C(CCNS(=O)(=O)c1ccccc1C(F)(F)F)NCc1ccc2c(c1)OCO2	-0.2	-0.3	8921	-4.4	-31.4	-4.3	3.6
COc1ccccc1NC(=O)COC(=O)/C=C/c1ccc2c(c1)OCO2	.	-14.0	3470	.	-54.1	.	.
COc1ccc(NC(=O)Cn2nc([N+](=O)[O-])c(Cl)c2C)cc1OC	7.8	1.5	4483	2.2	-22.1	4.7	-6.3
Cc1cccc(N2C(=O)CC(N3CCOCC3)C2=O)c1 (stereo not drawn)	1.6	0.6	5232	3.7	-16.6	.	.
O=C(CCCN1C(=O)/C(=C/c2ccccc2Cl)SC1=S)Nc1ccccn1	3.9	4.8	2457	9.9	-2.9	1.2	0.1
CC(C)c1ccc2oc(=O)cc(CN3CCN(c4ccccc4)CC3)c2c1	-1.9	2.1	4351	-1.9	-26.3	.	.
N=c1n(CCO)c2ccccc2n1CCOc1ccccc1	0.2	-4.7	3817	1.3	2.3	.	.

Next part (2 carried over from the part before).
SMILES	Sa RN4220 lethal	BJeLR lethal	Bead autofluor	ugtP null kill	PrP UTR inh	Mtb hypoxia inh	Mtb hypoxia inh growth
CC(C)c1ccc2oc(=O)cc(CN3CCN(c4ccccc4)CC3)c2c1	-1.9	2.1	4351	-1.9	-26.3	.	.
N=c1n(CCO)c2ccccc2n1CCOc1ccccc1	0.2	-4.7	3817	1.3	2.3	.	.
Cc1ccc(NC(=O)C2=CN3CCS(=O)(=O)N=C3C=C2)cc1	4.4	.	3538	8.2	-7.9	19.9	14.0
CCS(=O)(=O)c1ccc(NC(=O)c2ccccc2Cl)c(O)c1	0.1	-6.4	2017	-2.3	-8.9	.	.
CCOc1ncccc1C(=O)OCC(=O)Nc1ccc2c(c1)CCC2	7.0	.	3479	-1.4	-13.8	18.6	14.4
O=C(c1cc2cc(Cl)cc(Cl)c2oc1=O)N1CCOCC1	-18.2	6.4	2830	-7.8	-27.1	1.5	5.2
Cc1ccc(NC(=O)CN(C)CC(=O)Nc2ccccc2-c2ccccc2)cc1	8.6	3.7	5039	7.9	-7.4	-1.9	6.3
COc1ccc(N(CC(=O)NCCSc2ccccn2)S(C)(=O)=O)cc1Cl	2.1	-12.8	9068	2.4	-23.3	2.7	3.6
CC(=O)c1cccc(NC(=O)c2ccco2)c1	-8.7	-2.1	3203	-1.8	-7.0	14.5	1.4
Cc1ccc(-c2n[nH]c(=S)n2N=Cc2ccco2)cc1	8.8	.	.	1.3	.	2.9	4.0
O=[N+]([O-])c1ccc(NC(=S)N2CCOCC2)cc1	0.3	-11.3	2472	-2.2	-10.9	0.7	14.8
CCOc1ccc(NC(=O)CC(C)S(=O)(=O)c2ccc3c(c2)NC(=O)CO3)cc1 (stereo not drawn)	1.0	-4.0	6335	12.5	-25.1	6.6	4.8
O=C(Nc1cnccn1)Nc1ccccc1F	-0.5	5.3	5381	-2.0	-32.3	8.8	1.5
CC1CC(C)C(=NNC(N)=O)C(C(O)CC2CCC(=O)NC2=O)C1 (stereo not drawn)	2.0	.	3263	8.9	-14.1	16.4	11.7
CC(NC(=O)CNC(=O)c1ccco1)c1ccc(S(N)(=O)=O)cc1 (stereo not drawn)	4.7	-7.3	2944	5.0	0.1	-7.3	-10.8
COc1ccc(NC(=O)c2cccc(N3C(=O)C4C5C=CC(C5)C4C3=O)c2)cc1 (stereo not drawn)	0.4	-7.4	5942	9.3	-8.8	9.3	-21.4
CCOC(=O)c1c(C)[nH]c(C(=O)N2CCN(c3ccc(OC)cc3)CC2)c1C	3.4	2.7	2900	2.7	-17.9	2.2	-6.2
CC1CCC(NC(=O)C2CC(=O)N(c3ccc(Cl)cc3)C2)CC1 (stereo not drawn)	1.1	-4.3	5808	2.4	-19.5	0.7	1.0
COc1ccc(OCc2cccc(C(=O)N3CCCC3)c2)cc1	2.7	6.1	4896	-1.4	-36.1	-0.6	9.3
Cc1cc(C(=O)Cn2cnc3cc([N+](=O)[O-])ccc3c2=O)c(C)n1CC1CCCO1 (stereo not drawn)	-0.8	-8.1	5480	0.3	-11.2	10.3	5.9
COc1ccc(/C=C/C(=O)OCC(=O)NC2CCCCCCC2)cc1	6.8	.	7241	6.9	2.5	1.3	6.2
O=C(Nc1cccc2ccccc12)c1onc2c1CCCC2	16.1	11.7	.	10.2	-64.0	-2.1	2.4
CN1C(=O)/C(=C/c2ccc(Cl)s2)C(=O)NC1=S	.	-1.9	7369	.	-5.3	.	.
COc1ccc(C(CNC(=O)c2cncc(Br)c2)N(C)C)cc1 (stereo not drawn)	2.0	5.3	3355	4.2	-37.6	19.1	12.5
O=C(NCC(=O)N(Cc1ccccc1)C(C(=O)NC1CCCCC1)c1ccco1)c1ccco1 (stereo not drawn)	2.8	2.3	2858	-3.4	-7.0	.	.
O=C(c1cc2n(n1)C(C(F)(F)F)CC(c1ccco1)N2)N1CCN(c2ccccn2)CC1 (stereo not drawn)	17.2	-9.0	2812	-9.1	-22.8	9.3	0.0

Quoted at random: 2 compounds from above.
SMILES	Sa RN4220 lethal	BJeLR lethal	Bead autofluor	ugtP null kill	PrP UTR inh	Mtb hypoxia inh	Mtb hypoxia inh growth
O=C(NCC(=O)N(Cc1ccccc1)C(C(=O)NC1CCCCC1)c1ccco1)c1ccco1 (stereo not drawn)	2.8	2.3	2858	-3.4	-7.0	.	.
COc1ccc(/C=C/C(=O)OCC(=O)NC2CCCCCCC2)cc1	6.8	.	7241	6.9	2.5	1.3	6.2

Next part
SMILES	Sa RN4220 lethal	BJeLR lethal	Bead autofluor	ugtP null kill	PrP UTR inh	Mtb hypoxia inh	Mtb hypoxia inh growth
CN(Cc1ccccn1)Cc1cn(Cc2ccccc2)nc1-c1ccc2c(c1)OCO2	9.5	-8.8	3965	-0.5	-30.9	4.4	1.1
COc1ccc(C(=O)NC(=S)Nc2ccc(NC(=O)c3ccco3)cc2)cc1[N+](=O)[O-]	.	-21.5	10614	.	-12.3	.	.
O=C(Nc1ccc(C(=O)N2CCCC2)cc1)c1ccccc1F	-0.8	29.1	16849*	2.1	-50.4	1.7	11.3
CSc1nnc(-c2sccc2OCc2ccc(C)cc2)n1C	7.3	-12.3	9964	-2.2	-19.6	-5.3	10.1
COc1ccc(Cn2c(=S)[nH]c3cc(C(=O)N4CCN(c5ccccc5)CC4)ccc3c2=O)cc1	-7.4	13.0	3586	20.1	-10.6	2.8	-4.6
Cc1cc(F)ccc1S(=O)(=O)Nc1ncnc2sccc12	7.0	-2.9	4708	2.7	-13.9	2.9	10.9
COc1cccc(CNC(=O)C2CCC(CNc3nc(=S)[nH]c4ccccc34)CC2)c1 (stereo not drawn)	3.6	-0.6	4398	3.2	-16.8	4.5	7.1
Cc1ccc(NC(=O)CN(C)C(=O)COC(=O)c2oc3ccccc3c2C)cc1	0.9	.	3935	-1.4	-20.6	6.4	5.8
CC(C)(C)OC(=O)N1CCC(NC(=O)c2ncn(Cc3ccccc3)c2C(=O)NC2CCN(C(=O)OC(C)(C)C)CC2)CC1	6.6	.	2890	5.9	-8.6	-0.1	8.6
CC(=O)Nc1ccc(/C(C)=N/NC(=O)CN(c2ccccc2Br)S(C)(=O)=O)cc1	.	-3.0	2537	.	-28.5	.	.
COc1ccccc1CC(=O)NNC(=O)CN(C)S(=O)(=O)c1ccc(Cl)cc1	1.1	0.0	?	-0.4	-10.9	-14.7	1.0
O=Cc1cn(-c2ccccc2)nc1-c1ccccn1	0.7	-7.0	4794	4.9	-13.0	2.4	-1.3
Cc1ccc2c(c1)CC1(CN2C)C(=O)NC(=O)N(C(C)C)C1=O (stereo not drawn)	4.0	0.2	9610	2.7	1.7	-0.6	5.9
COC(=O)c1cc(OC)c(OC)cc1NC(=S)Nc1cc(Cl)ccc1OC	5.5	4.1	2703	-2.8	-1.7	-1.8	-4.0
Cc1ccc(OCc2nnc(-c3ccc(Cl)cc3)o2)cc1	2.4	-11.5	2996	3.0	-14.7	1.5	-4.5
CC1(C(=O)NCC2CC2)C=CC2(CCCCC2)N1C(=O)c1ccccc1 (stereo not drawn)	4.5	-4.6	4101	-2.8	-27.6	-2.7	-9.9
CCOc1ccc(Cl)cc1/C=N/O	.	2.8	12596	.	-8.7	.	.
O=C(Nc1ccccc1)Nc1ccc(Br)cc1F	-2.8	-1.9	11123	6.6	-47.6	-2.9	-8.5
CCC(C)(C)NC(=O)CN(C(=O)CCC(=O)Nc1cc(C)ccn1)c1ccc2c(c1)OCCO2	4.0	-2.6	4668	7.9	-39.3	-1.9	4.6
O=C(COC(=O)c1ccncc1)c1ccc(Br)cc1	4.7	0.5	4145	3.4	-32.4	11.7	3.4
COc1ccc(C(=O)NC2CCCN(Cc3ccc(Cl)cc3)C2)c(OC)c1 (stereo not drawn)	1.7	-2.1	5309	13.3	-12.0	12.2	7.5
CCSc1ccc([C@@H]2[C@@H]3C(=O)N(CC)C(=O)[C@@H]3[C@]3(C(=O)OC)CCCN23)cc1	.	-1.9	4172	.	-20.2	.	.
CC(C)c1ccc(NCCC(=O)c2cccs2)cc1	5.7	-2.7	2467	16.4	-32.9	4.4	3.6
C=CCc1ccc(OCCOCCOc2ccc(C)cc2[N+](=O)[O-])c(OC)c1	1.5	1.8	2910	12.7	-22.4	.	.
CCOC(=O)CSC1=C(C#N)C(c2ccc(OC)cc2)C2=C(CC(C)(C)CC2=O)N1 (stereo not drawn)	7.7	-4.8	3439	17.2	1.0	4.0	-2.1
CCOC(=O)[C@]1(C#N)[C@@H]2C=CC(C(C)=O)=CN2[C@@H](C(N)=O)[C@@H]1c1ccsc1	2.9	-3.7	4302	1.2	-21.4	.	.
O=C(CSc1nnnn1-c1ccc(Cl)cc1)NNC(=O)c1ccc([N+](=O)[O-])cc1	3.6	8.4	2387	17.3	-11.0	-3.5	0.6
CCCCCCCCCCCCN1C(CC(C)=O)c2cc(F)ccc2S1(=O)=O (stereo not drawn)	-4.8	.	.	8.4	.	20.4	3.5
COc1ccccc1N1CCN(C(=O)CSc2nc3ccccc3[nH]2)CC1	1.7	-9.3	11200	9.5	.	4.1	7.7
CCn1c(SCC(=O)Nc2cccc(OC)c2)nc2c(c1=O)SCC2	3.1	-2.2	.	1.9	-17.5	12.1	-4.9
Cc1ccccc1-n1nnnc1SCC(N)=O	10.6	8.8	3920	-4.8	-11.5	.	.
Cc1oc(N=Cc2ccc(F)cc2)c(C#N)c1C	1.2	.	.	0.9	.	3.0	-2.5
COc1ccc(OC)c(NC(=O)C2CCN(S(=O)(=O)c3cccs3)CC2)c1	-0.6	-3.6	15230	6.9	-11.9	-0.1	-0.5
O=C(NCCc1ccncc1)Nc1ccc(F)cc1	2.6	-1.9	3606	6.4	-0.8	-7.4	6.2
CCOC(=O)C1=C(C)N=C2SC(C)C(=O)N2C1c1ccc(OC(C)=O)c(OCC)c1 (stereo not drawn)	-15.3	-12.4	.	-8.0	.	1.1	3.3
CC(=O)c1ccc(NC(=O)Nc2ccc(S(=O)(=O)N3CCCC3)cc2)cc1	-1.0	-0.1	4589	-1.6	-2.0	11.5	-14.3
CCN(c1ccccc1)S(=O)(=O)c1ccc(OCC(=O)Nc2cc(C)on2)cc1	10.2	7.1	2792	-4.0	-36.8	11.4	1.1
O=C(O)c1cc(C(F)(F)F)nc2ccccc12	0.5	8.8	3448	1.0	-6.0	-0.1	0.3
COC(=O)[C@@H](Cc1c[nH]c2ccccc12)NC(=O)CNC(=O)c1ccccc1OC	2.0	-2.2	3771	16.3	-37.5	10.1	1.6
CCOC(=O)N1CCN(C(=O)CN(c2cccc(C)c2)S(=O)(=O)c2ccccc2)CC1	8.3	9.2	3812	-5.1	-62.0	15.6	16.7
